Source: PubChem BioAssay
liver stage: exo-erythrocytic parasite development inhibition – imaging, Malaria Box, P. yoelii, HepG2-A16-CD81EGFP, dose response (AID 602156); calls after a first round at 10 µM; hits with a dose series show IC50 in µM; 5,700 tested, 4.8% active; P. yoelii liver stage in HepG2-A16-CD81EGFP, imaging; first-round cut-off not given here; in the data active = a potency from the dose series;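 note: infected cells exposed to compound for 48 hours before fixation; stained parasite area by imaging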
Calls only; i = inactive.

SMILES	liver stage
CNC1CC2OC(C)(C1OC)n1c3ccccc3c3c4c(c5c6ccccc6n2c5c31)C(=O)NC4O (stereo not given)	i

The list is partial (hit frequency here may not be typical).
